Compound activity deposited in PubChem by National Center for Advancing Translational Sciences (NCATS).
D2 ag – agonists of human D2 dopamine receptor (beta-arrestin). P14416. activation, % (test concentration not listed). 360,000 tested, 0.084% active. DiscoveRx PathHunter D2 beta-arrestin, luminescence, 90 min; 100% = 57 uM dopamine signal. AID 624465; in the data active = activation above about 40%; inconclusive = about 15% to 40%; inactive = below about 15%; further: compound concentration not given in the record; the text of the record calls up to 30% inactive
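Agonist mode: compounds alone added to overnight-plated D2 PathHunter cells for 90 min at 37 C, with 57 uM final dopamine (EC100) defining full response. Beta-arrestin recruitment detected by chemiluminescent reagent, read after 1 h at ambient temperature.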
gsp ag – activates gsp, the McCune-Albright syndrome mutation | gsp mutant cells, cAMP HTRF, 30 min; control for the full effect not named in the record | Potency, µM (top dose mostly 76.9 µM), for inactives: at the top dose activation (cAMP increase), hits mostly activators | 340,000 tested, 0.13% active | AID 624287; active = well fitted activation curve with a large enough effect; inconclusive = small, poorly fitted or top-dose-only effect, or another doubt; inactive = no such curve, though single readings can be large or run the other way; cell line not stated here;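 further: phosphodiesterase inhibitor Ro 20-1724 added with compounds to block cAMP breakdown; potency means the concentration at half of the fitted maximal effect; nearly all actives have a fitted effect of over 60% in size; about a fifth of the inactives were tested at one dose only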
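Cells stably selected in G418 were plated at 2000/well, grown 16-24 hr, then given compounds in DMSO with the PDE inhibitor […] (300 uM solution added) for 30 min at 37C; cAMP was read by HTRF.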
D2 potentiator – potentiates the human D2 dopamine receptor allosterically. P14416. DiscoveRx D2 beta-arrestin cells, luminescence, 90 min; 100% = 57 uM dopamine signal. 360,000 tested, 0.23% active. AID 624464. potentiation, % (no concentration beside the values); active = potentiation of 50% or more; inconclusive = 30% to 50%; inactive = 30% or less;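 further: compound concentration not given in the record; tested on top of an EC20 dose of dopamine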
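PathHunter D2 cells, attached overnight at 37 deg C, received compound in DMSO plus dopamine at EC20 (50 nM final) for 90 min at 37 deg C. Beta-arrestin recruitment was read as luminescence after 1 h with detection reagent at ambient temperature.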
Six1-Eya2 inh – inhibitors of human Six1/Eya2 interaction; AlphaScreen GST-Six1/His-Eya2 binding, biochemical; active compounds read low; control for the full effect not named in the record; activity change, % (concentration not given with the values); 360,000 tested, 0.56% active; in the data active = activity change below about -65%; inconclusive = about -30% to -65%; inactive = above about -30%; further: on the % scale 0 is the no-effect control and ±100 the full control effect
Target sequence (O00167 whole entry, looked up): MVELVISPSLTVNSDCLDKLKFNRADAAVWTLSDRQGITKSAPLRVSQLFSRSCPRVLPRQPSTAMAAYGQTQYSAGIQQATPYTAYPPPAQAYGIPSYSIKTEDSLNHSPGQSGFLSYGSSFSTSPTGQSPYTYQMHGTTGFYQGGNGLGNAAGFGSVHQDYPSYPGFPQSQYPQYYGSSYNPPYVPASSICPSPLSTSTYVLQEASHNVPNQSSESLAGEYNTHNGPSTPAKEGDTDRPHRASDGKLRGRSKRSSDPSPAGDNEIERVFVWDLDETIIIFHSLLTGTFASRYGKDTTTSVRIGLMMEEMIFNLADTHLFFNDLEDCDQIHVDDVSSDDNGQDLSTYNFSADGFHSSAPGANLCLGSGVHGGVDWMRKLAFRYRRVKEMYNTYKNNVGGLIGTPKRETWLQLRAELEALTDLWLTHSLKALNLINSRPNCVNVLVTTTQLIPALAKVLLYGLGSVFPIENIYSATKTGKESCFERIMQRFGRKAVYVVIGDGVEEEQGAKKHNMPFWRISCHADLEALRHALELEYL
Target sequence (Q15475 whole entry, looked up): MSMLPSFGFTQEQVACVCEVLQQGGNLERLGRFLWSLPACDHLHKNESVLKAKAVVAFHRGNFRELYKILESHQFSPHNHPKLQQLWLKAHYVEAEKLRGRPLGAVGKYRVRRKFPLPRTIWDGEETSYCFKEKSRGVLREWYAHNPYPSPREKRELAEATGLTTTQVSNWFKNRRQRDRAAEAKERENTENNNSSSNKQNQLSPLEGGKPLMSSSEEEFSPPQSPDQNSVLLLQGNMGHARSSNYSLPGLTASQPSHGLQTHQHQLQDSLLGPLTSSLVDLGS
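Six1/Eya2 binding was read as AlphaScreen signal after compounds were pinned into GST-Six1 plus His-tagged Eya2 (5X stock 250/500 nM) in pH 8.0 Tris/NaCl/TCEP buffer, beads added, then incubated 1 h, 37 C, dark.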
CtBP-E1A blk – CtBP/E1A binding inhibition; AlphaScreen GST-E1A/His-CtBP binding, 1536-well; active compounds read low; control for the full effect not named in the record; activity change, % (concentration not given with the values); 340,000 tested, 0.49% active; in the data active means activity change below about -65%; inconclusive means about -30% to -65%; inactive means above about -30%; further: on the % scale 0 is the no-effect control and ±100 the full control effect
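Protein mix (5X: 125 nM each GST-E1A, His-CtBP) was incubated with pinned compound 2 h at 37 deg C in dark, in 50 mM Tris pH 8.0 buffer with 300 mM NaCl. Glutathione donor and nickel acceptor beads followed; AlphaScreen signal read after 1 h.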
gsp antag – antagonists of gsp mutant (McCune-Albright syndrome). gsp-mutant cells, cAMP HTRF, 30 min; control for the full effect not named in the record. Potency, µM (doses to about 76.9 µM), for the others: top-dose activity change, negative = inhibition, most hits filed as inhibitors. 340,000 tested, 0.4% active; active = falling curve of any shape with a large fitted effect; inconclusive = falling curve, mostly with a smaller effect; inactive = flat or rising curve; cell line not stated here;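 further: intracellular cAMP measured with PDE inhibitor Ro 20-1724 present during compound exposure; potency means the concentration at half of the fitted maximal effect; on the % scale 0 is the no-effect control and ±100 the full control effect; nearly all actives have a fitted effect of over 65% in size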
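Cells in G418 medium, seeded 16-24 h, 37C; buffer exchange to DPBS + 1 mM CaCl2, 0.5 mM MgCl2, 0.05% BSA; cpds in DMSO + […] (300 uM stock), 30 min 37C; HTRF cAMP detection.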
Starred values were filed as active, the others as inactive; ? = inconclusive; . = no result given; [ ] = another dose, or the depositor's remark.

1. CC1(c2ccc(Cl)cc2)NC(=O)N(CC(=O)N2CCCC2)C1=O (centres undefined)
2. CCOc1ccc(-c2c[n+]3c(n2-c2ccccc2)CCCCC3)cc1
3. O=C(NCc1ccc(F)cc1)c1cccc2c1C(=O)c1ccc(N3CCOCC3)cc1S2(=O)=O
4. COc1ccc(N2CCN(S(=O)(=O)CCNC(=O)COc3ccccc3)CC2)cc1
5. CN(CC(=O)NC(=O)NCc1ccccc1)CC(=O)Nc1ccc(Cl)c(C(F)(F)F)c1
6. CCCC(=O)OC/C(O)=C(\C#N)c1nc2ccccc2[nH]1

screen / no.	1	2	3	4	5	6
gsp antag	5%	5%	-15%	6%	-23%	-4%
D2 potentiator	-2	-3	8	10	-10	0
D2 ag	-0.8	-1.3	3.5	5.1	3.4	-1.2
Six1-Eya2 inh	0	3	7	12	-4	-10
gsp ag	1%	?	3%	-12%	-15%[15.4 µM]	-6%[15.4 µM]
CtBP-E1A blk	1	-4	-27	-23	0	-16

7. Cc1ccc(N2C(=O)C(Cl)=C(N3CCOCC3)C2=O)c(C)c1
8. COc1ccc(NC(=S)Nc2cc(C)cc(C)n2)cc1OC
9. O=C(NC(c1ccc(-c2ccccc2)cc1)c1cnccn1)C1CCN(Cc2ccc(Oc3ccccc3)cc2)CC1 (centres undefined)
10. COC(=O)c1nc2nc(C)cc(=O)n2[nH]1
11. Cc1cc(/C=N\NC(=O)CC(=O)NC2CCCCC2)c(C)n1-c1ccc(Cl)cc1
12. CC1(C)C2CCC1(CS(=O)(=O)NCc1ccc(C(F)(F)F)cc1)C(=O)C2 (centres undefined)

screen / no.	7	8	9	10	11	12
gsp antag	2%	9%	.	?	12%	0%
D2 potentiator	-6	-14	-12	7	-19	-1
D2 ag	0.9	-2.1	5.2	-1.0	-2.1	3.6
Six1-Eya2 inh	4	-3	-5	14	-12	2
gsp ag	14%	-27%	.	-32%[inhibitor]	-35%[inhibitor]	13%
CtBP-E1A blk	.	2	-1	-3	-13	13

13. O=C(Nc1ccc(C(=O)N2CCOCC2)cc1)C1CCC1
14. O=C(NCCc1ccccc1)c1ccc2c(c1)N(Cc1ccccc1)C(=O)CS2=O (centres undefined)
15. CCOC(=O)N1CCN(C(=O)c2cc3c(s2)-c2ccc(Cl)cc2S(=O)(=O)C3)CC1
16. CN(C)c1ncnc2sc(-c3ccccc3)cc12
17. CC1(C)CN2C(=S)N(c3ccccc3)C(c3ccccc3)N2C1 (centres undefined)
18. CC1(C)CNc2cc([N+](=O)[O-])ccc2S1

screen / no.	13	14	15	16	17	18
gsp antag	6%	-18%	5%	-6%	-12%	11%
D2 potentiator	-14	-1	-4	-10	10	-13
D2 ag	-1.7	-2.3	-4.5	-2.6	0.5	-6.7
Six1-Eya2 inh	2	0	1	-5	8	5
gsp ag	.	-10%	-1%	?	4%	-11%[15.4 µM]
CtBP-E1A blk	6	0	4	-11	-2	-3

19. COc1ccc(Br)cc1C(=O)CCC(=O)OCC(=O)Nc1cc(C(N)=O)cc(C(N)=O)c1
20. CCOC(=O)N1CCC(Nc2ncnc3c2cnn3-c2ccc(Cl)cc2)CC1
21. CCc1nc2ccc(C(=O)N3CCN(c4cccc(C(F)(F)F)c4)CC3)cc2nc1CC
22. CC1(C(=O)Nc2ccc3ccccc3c2)CCC(=O)N1CCc1c[nH]c2ccccc12 (centres undefined)
23. C[C@H](CO)N1C[C@H](C)[C@@H](CN(C)Cc2ccc3c(c2)OCO3)Oc2c(NC(=O)C3CC3)cccc2C1=O
24. NC(=O)Cn1c(-c2nonc2N)nc2ccccc21

screen / no.	19	20	21	22	23	24
gsp antag	13%	4%	-33%	.	-8%	2%
D2 potentiator	-12	0	-4	-7	-12	-3
D2 ag	-0.4	-0.6	-3.7	-5.3	-3.0	-4.3
Six1-Eya2 inh	?	5	?	-9	5	-4
gsp ag	-1%[15.4 µM]	-4%	-5%	.	-1%	-103%[inhibitor]
CtBP-E1A blk	-70*	-10	?	-24	-9	.

One compound at a time (already shown).
Results for CCCC(=O)OC/C(O)=C(\C#N)c1nc2ccccc2[nH]1 → gsp antag: -4%; D2 potentiator: 0; D2 ag: -1.2; Six1-Eya2 inh: -10; gsp ag: -6%[15.4 µM]; CtBP-E1A blk: -16
Results for CCOC(=O)N1CCN(C(=O)c2cc3c(s2)-c2ccc(Cl)cc2S(=O)(=O)C3)CC1 → gsp antag: 5%; D2 potentiator: -4; D2 ag: -4.5; Six1-Eya2 inh: 1; gsp ag: -1%; CtBP-E1A blk: 4

(listing goes on)
25. CC(C)Oc1cccc(OCCN2C(=O)c3ccccc3C2=O)c1
26. COc1ccc(OC)c(S(=O)(=O)Nc2c(C)n(C)n(-c3ccccc3)c2=O)c1
27. Cc1onc(-c2ccccc2Cl)c1C(=O)NC1CCS(=O)(=O)C1 (centres undefined)
28. COc1cc(CNCc2ccccc2)ccc1OCC(O)c1ccccc1 (centres undefined)
29. O=C(CN(C(=O)c1csnn1)c1ccc(F)c(Cl)c1)NC1CCCC1
30. CCCN1C(=O)/C(=C/c2ccccc2OCc2ccc(C(=O)O)cc2)NC1=S

screen / no.	25	26	27	28	29	30
gsp antag	0%	5%	7%	8%	9%	?
D2 potentiator	-8	-4	-6	-7	-5	-6
D2 ag	0.2	-0.1	1.4	-8.5	-0.2	-2.3
Six1-Eya2 inh	-12	3	6	-5	0	-5
gsp ag	-7%[15.4 µM]	-8%	-16%	3%	-16%	?
CtBP-E1A blk	-15	-7	-8	.	7	-4

31. Cc1nn(-c2ccccc2)c(C)c1NC(=O)COC(=O)c1cc(Br)ccc1O
32. Cc1ccc(Oc2ccc(Oc3ccc(C)cc3)nn2)cc1
33. Cc1cc(C(=O)COC(=O)/C=C/c2ccco2)c(C)n1C
34. Cn1c(Cn2c(=O)sc3ccccc32)nnc1SCC(=O)NCc1ccc(F)cc1
35. COC(=O)c1sccc1NC(=O)c1cc(-c2ccc(C)cc2C)nc2ccccc12
36. CCN(CC)CCCNC(=O)C(C)Sc1nc(-c2ccccc2)cc(C(F)(F)F)n1 (centres undefined)

screen / no.	31	32	33	34	35	36
gsp antag	-4%	10%	-9%	1%	3%[15.4 µM]	15%
D2 potentiator	16	-13	-10	-1	-9	-10
D2 ag	0.3	-4.2	1.5	-3.8	-4.4	-2.7
Six1-Eya2 inh	-18	24	-4	-1	-1	5
gsp ag	-21%	1%	-15%	1%	4%	-25%
CtBP-E1A blk	?	3	-3	-1	-1	.

37. S=C1NNC2(NN1)C1CC3CC(C1)CC2C3
38. CC(C)OCCCNC(=S)Nc1ccc(S(N)(=O)=O)cc1
39. Cc1ccc(C(=O)Nc2ccc(N3CCOCC3)cc2N2CCOCC2)cc1
40. Cc1ccccc1CN1CCN(C(=O)c2ccc(S(=O)(=O)NCc3ccco3)cc2)CC1
41. COc1ccccc1NC(=O)Nc1nnc(CC(=O)Nc2cccc(C)c2)s1
42. O=c1oc2ccccc2c2c1ncn2CCN1CCOCC1

screen / no.	37	38	39	40	41	42
gsp antag	-1%	1%	-15%	1%	-5%	4%
D2 potentiator	-1	10	-3	-2	-13	3
D2 ag	-4.0	-1.3	0.5	-1.1	-0.9	1.4
Six1-Eya2 inh	-8	2	-1	-4	-13	-10
gsp ag	-23%	-35%	-60%	?	-1%	-12%
CtBP-E1A blk	-6	10	2	.	-16	25

43. CCc1cccc(OC2OC(CO)C(O)C(O)C2NC(C)=O)c1 (centres undefined)
44. COc1nccnc1NS(=O)(=O)c1ccc(NC(=S)NC(=O)c2ccccc2F)cc1
45. CCc1ccc(NC(=O)C(C)OC(=O)C2CCC(=O)N2)cc1 (centres undefined)
46. CC(C)c1nnc(-c2ccc(Cl)cc2)c(N(C)C)n1
47. CCCn1nnc(NC(=O)c2sc3ccccc3c2Cl)n1
48. COc1cccc(/C=C/C(=O)OCC(=O)Nc2cccc(S(=O)(=O)N3CCCCC3)c2)c1OC

screen / no.	43	44	45	46	47	48
gsp antag	1%	-44%	3%	-3%	-5%	-5%
D2 potentiator	0	-7	-2	-3	-3	1
D2 ag	-3.0	-7.8	-2.0	-0.4	-3.9	7.7
Six1-Eya2 inh	9	?	3	4	-25	-9
gsp ag	-11%[15.4 µM]	-4%[15.4 µM]	-6%[15.4 µM]	0%	?	-18%[15.4 µM]
CtBP-E1A blk	0	1	0	3	-12	-1

49. N#CC(=C1C=C(Br)C(=NO)C=C1Cl)c1ccc(Cl)cc1
50. Cc1ccc(NC(=O)CS(=O)CC(=O)N2CCN(c3ccccc3)CC2)cc1 (centres undefined)
51. CC1=C/C(=N\OS(=O)(=O)c2ccccc2)C=CC1=O
52. O=C(Nc1ccccc1)OCCOc1ccc(Br)cc1
53. COc1cccc(C(=O)Nc2ccc(NC(=O)Cc3ccccc3)cc2)c1
54. C=CCOc1ccc(C2C(C#N)=C(N)N(Nc3ccccc3)C3=C2C(=O)CC(C)(C)C3)cc1OC (centres undefined)

screen / no.	49	50	51	52	53	54
gsp antag	.	8%	3%	6%	-4%	?
D2 potentiator	-9	-10	?	-4	-6	-8
D2 ag	2.8	-7.3	?	1.3	-0.5	-3.9
Six1-Eya2 inh	-6	-19	?	14	3	-19
gsp ag	-2%	0%[15.4 µM]	3%	-10%	-45%	-9%
CtBP-E1A blk	1	-1	-2	4	1	-5

55. OC(COC1CCCCC1)CN1CCCCC1 (centres undefined)
56. Cc1ccccc1NC(=O)Cc1nc(COC(=O)COc2ccc(C(C)(C)C)cc2)cs1
57. Cc1ccn2c(CN3CCOCC3)c(-c3ccccc3)nc2c1
58. CCOc1ccc(NC(=O)c2ccc3c(SCC(=O)O)c4c(nc3c2)CCCC4)cc1
59. Cn1c(=O)n(C)c2cc(NC(=O)Cc3ccccc3[N+](=O)[O-])ccc21

screen / no.	55	56	57	58	59
gsp antag	-15%	-1%	-1%	-5%	-9%
D2 potentiator	-29	-5	-8	9	2
D2 ag	0.2	-1.6	-0.7	2.0	2.5
Six1-Eya2 inh	4	2	-5	-4	3
gsp ag	4%	14%	-6%	34%	5%
CtBP-E1A blk	-2	.	-1	.	.
